# NPYLR7 agonist: mosquito NPYLR7 agonism. HEK293T NPYLR7/Galpha15, GCaMP6s calcium fluorescence. activation, % at 10 µM. actives 0.15% (n = 270,000). AID 1259423; in the data active means activation above about 40%;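 further: 0% = vehicle and 100% = reference agonist at the receptor; some compounds past the cut are filed as inactive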
# NPYLR7 agonist max-min: recorded beside NPYLR7 agonist, whose call it bears; activation, %; measured here: Max-Min RFU normalised activation; some inactives read as strong as hits;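 span of the calcium signal over five minutes; 0% = vehicle and 100% = native peptide agonist; compound fluorescence can raise it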
# The depositor's hits bear a star; & = joins results of further samples.
SMILES,NPYLR7 agonist,NPYLR7 agonist max-min
Cc1ccc(NC(=O)C2COc3ccccc3C2)c(Cl)c1 (stereo not given),1.7,1.6
CCOCCOC(=O)C1=C(C)NC(=O)NC1c1ccccc1Cl (stereo not given),-5.2,-4.4
O=C(NCc1ccccc1F)c1ccc(N2CCC(NCc3nc4ccccc4s3)CC2)cc1,23.7,5.8
CN(C(=O)CCc1nc2cc(S(=O)(=O)N3CCOCC3)ccc2n1C)C1CCS(=O)(=O)C1 (stereo not given),3.9,14.6
COc1ccc(C(=O)N2CCCN(c3nc(Cc4cccc(OC)c4)ns3)CC2)cc1,-3.5,9.0
CN1CC2(CCCN(CCS(=O)(=O)c3ccccc3)CC2)OC1=O (stereo not given),-4.5,-11.3
CC(NC(=O)C1CC(=O)NC(=O)C1)(c1ccccc1)c1ccccc1,14.0,12.0
CC(C)(C)C(=O)N1CCN(CC(F)(F)F)CC1,12.6,8.0
CCOc1cc(C(=O)N2CCNC(=O)C2C)cc(OCC)c1OCC (stereo not given),-7.7,-6.2
Cc1nc(SCC(=O)NC(C)(C#N)C(C)C)c2c(C)c(C)sc2n1 (stereo not given),2.4,0.8

# Copied from the entries so far, 4 compounds:
SMILES,NPYLR7 agonist,NPYLR7 agonist max-min
CC(NC(=O)C1CC(=O)NC(=O)C1)(c1ccccc1)c1ccccc1,14.0,12.0
CC(C)(C)C(=O)N1CCN(CC(F)(F)F)CC1,12.6,8.0
CCOc1cc(C(=O)N2CCNC(=O)C2C)cc(OCC)c1OCC (stereo not given),-7.7,-6.2
Cc1nc(SCC(=O)NC(C)(C#N)C(C)C)c2c(C)c(C)sc2n1 (stereo not given),2.4,0.8

# (list continues)
SMILES,NPYLR7 agonist,NPYLR7 agonist max-min
CNC(=O)CN(C)Cc1ccc(Br)cc1,0.9,-0.3
CC(NC(=O)C1CCCN1Cc1ccccc1)c1cccc(Cl)c1 (stereo not given),8.8,6.9
C[C@]12CCC(=O)C=C1CCC1C3CC[C@](O)(C(=O)CO)[C@@]3(C)CC3OC312 (stereo not given in full),1.7,0.9
CCOC(=O)c1c(-c2ccc(C)o2)csc1N=Cc1c(O)[nH]c(=S)[nH]c1=O,14.2,13.6
COCCNC(=S)NN=C1CCCCCCCCCCC1,5.2,1.6
O=C(COCc1ccccc1)NCc1cccc(-c2ncc(-c3ccc(F)cc3)[nH]2)c1,26.3,23.0
CN(CC(=O)Nc1ccccc1Cl)C(=O)CN1CCOc2ccc(Cl)cc21,2.4,1.6
COc1cc(Br)ccc1OCC(=O)N=Nc1c(O)n(C)c2c(C)cc(Br)cc12,1.5,-2.9
Cc1ccc(C(=O)ON2C(=O)CCC2=O)cc1Br,-2.9,-4.6
O=C(CNC(=O)c1cc(Cl)c2c(c1)OCCO2)NC1CCS(=O)(=O)C1 (stereo not given),4.5,3.1
COCc1[nH]nc2c1C(c1cc(OC)ccc1OC)C(C#N)C(=N)O2 (stereo not given),0.6,-0.1
Cc1nc2ccc(F)cc2n1C1CCN(C(=O)c2ccsc2)CC1,-5.1,0.8
CC(=O)Oc1ccc2c(=O)c(Oc3ccc(-c4ccccc4)cc3)c(C)oc2c1,-4.8,-8.4
O=C(NS(=O)(=O)CCc1ccccc1)c1cccs1,9.2,6.7
O=C1c2ccccc2S(=O)(=O)N1CCSc1nnnn1C1CCCC1,2.7,2.2
CCN(CC)c1ccc(-c2n[nH]c(=S)n2CC)cc1,15.0,25.9
CSc1ncc(Cl)c(C(=O)Nc2ccccc2C(F)(F)F)n1,4.9,4.8
CC(C)CNC(=O)/C=C/C(=O)O,-5.5,0.8
FC(F)Oc1ccc2c(c1)CCCN2,11.3,6.5
Cc1nc2n(n1)C(=O)C(C(c1cccc(F)c1)N1CCc3ccccc3C1)S2 (stereo not given),-1.2,-2.1
CC(=O)N1CC23C=CC(CC2CC1(c1ccccc1)c1ccccc1)O3 (stereo not given),5.1,2.2
CC(CNC(=O)C1(C#N)CCCCC1)N(C)c1ccccc1 (stereo not given),3.5,3.0
COC(=O)C(=O)N1CCN(c2cc(S(=O)(=O)N3CCOCC3)ccc2OC)CC1,16.2,24.8
CN(c1ccc(C(=O)CN2C(=O)NC(C)(c3cccc4ccccc34)C2=O)cc1)S(C)(=O)=O (stereo not given),10.1,4.5
COc1ccc(C(=O)NC2CCN(C(C)=O)CC2)cc1S(=O)(=O)N1CCOCC1,-3.9,-5.9
O=C(NCCN1CCOCC1)c1ccco1,6.9,13.5
CCC(C)N(Cc1ccsc1)C(=O)c1nc2nc(C)cc(C)n2n1 (stereo not given),15.7,10.5
COC(=O)CCCC(=O)N1CCN(c2nc3nccc(-c4ccc5c(c4)OCO5)n3n2)CC1,4.4,0.4
CC(C)Oc1ccc(CN2CCC2(C)C(=O)NCc2cccc3ccccc23)cc1 (stereo not given),-5.3,-4.6
CCCCNC(=O)c1cn(-c2ccc(C)c(C)c2)nn1,-3.5,-7.1
CCOC(=O)N1CCN(C(=O)c2cc(COc3cccc(OC)c3)[nH]n2)CC1,0.8,-1.1
CC1=C(C(=O)Nc2ccc(Cl)cc2)C(c2ccc(Cl)cc2Cl)NC(=O)N1 (stereo not given),-9.8,-10.9
Cc1ccc(C(=O)N2CC(=O)N(Cc3cccs3)CC(O)C2)cc1 (stereo not given),0.7,7.5
COC(=O)c1ccc2c(c1)CN(CC(=O)N1CCN(c3ccccc3)CC1)CC2,3.9,2.6
O=S1(=O)c2cccc3cccc(c23)N1Cc1ccc(Cl)cc1,0.5,-1.1
COc1ccccc1N1C(=O)CSC1c1ccccc1NC(=O)COc1ccccc1 (stereo not given),-0.5,5.2
COc1ccc(C(c2c(O)cc(C)n(Cc3ccco3)c2=O)N2CCCCC2)cc1OC (stereo not given),7.2,2.7
O=C(Nc1nc(-c2ccc([N+](=O)[O-])cc2)cs1)c1ccc(Br)cc1,-1.8,-4.8
CCc1ccc(C2c3cccn3CCCN2Cc2cccs2)cc1 (stereo not given),0.9,11.3
O=C(C1CC1c1ccc(F)cc1)N1CCN(C2CC2)C(=O)C1 (stereo not given),-0.2,-1.2

# In a second layout: results already given
compound | NPYLR7 agonist | NPYLR7 agonist max-min
COc1ccc(C(=O)NC2CCN(C(C)=O)CC2)cc1S(=O)(=O)N1CCOCC1 | -3.9 | -5.9
O=C(Nc1nc(-c2ccc([N+](=O)[O-])cc2)cs1)c1ccc(Br)cc1 | -1.8 | -4.8
Cc1nc2ccc(F)cc2n1C1CCN(C(=O)c2ccsc2)CC1 | -5.1 | 0.8
O=C1c2ccccc2S(=O)(=O)N1CCSc1nnnn1C1CCCC1 | 2.7 | 2.2
O=C(NCCN1CCOCC1)c1ccco1 | 6.9 | 13.5

# The list continues:
SMILES,NPYLR7 agonist,NPYLR7 agonist max-min
Nc1cc(-c2nc3ccccc3o2)ccc1Cl,0.9,1.5
Clc1ccc(Cc2nc(-c3cccnc3)no2)cc1,0.9&-0.7,-0.1&-2.2
COC(=O)c1cc(CN(Cc2ccncc2)C2CCN(C)CC2)cs1,-1.4,-4.6
C=CCNC(=O)N1CCC2(CCCN(CCC3CCCCC3)C2=O)C1 (stereo not given),8.4,5.9
Cc1ccc(Oc2cc(C(C)C)nc(SCc3cccc(C#N)c3)n2)cc1C,2.6,11.3
Cc1c(Cl)cccc1N=Cc1nc(-c2ccc(Cl)cc2)oc1O,-0.5,4.5
O=C(COc1ccc(Cl)cc1Cl)Nc1cccnc1-n1cncn1,-3.0,-4.3
O=C(NCC(=O)N1CCOCC1)C1CC(c2ccc(Cl)cc2)=NO1 (stereo not given),24.3,30.1
COc1cc(NC(=O)N2CCN(CCO)C(=O)C2)cc(OC)c1,5.7,-4.4
CCCN(CC(=O)N(CCc1ccc(OC)c(OC)c1)Cc1sccc1C)S(=O)(=O)c1ccc(Cl)cc1,-0.9,-0.6
COC(=O)c1nnn(-c2ccc(C)c(C)c2)c1C(=O)OC,2.9,6.0
CSc1nc(C)c(C(=O)Nc2ccccc2)c(C)c1C#N,-4.5,-10.4
CCOC(=O)C1CCN(C(=O)c2cccc(Oc3nc(Cc4cccc(OC)c4)ns3)c2)CC1,5.3,3.2
CC1(C(=O)O)CCN1C(=O)COc1ccc(Cl)cc1 (stereo not given),2.8,3.7
CN1CCCCC1CCC(=O)NC1(CN2CCOCC2)CCCCC1 (stereo not given),-0.2,-1.3
CCCC1(CNC(=O)Nc2ccc(Cl)c(CS(C)=O)c2)CC1 (stereo not given),-9.5,-9.9
CN(C)CCNC(=O)[C@@]1(OCc2ccccc2F)CC(OCc2cccc(C(F)(F)F)c2)[C@H](O)[C@H](O)C1 (stereo not given in full),26.1,33.0
CCC(=O)Nc1cccc(C(=O)N(CC)CCN2CCCCCC2)c1,16.0,9.6
COC(=O)c1c(C(F)(F)F)nc(C(F)F)c(C(=O)O)c1CC(C)C,-10.1,-16.4
O=S1(=O)C=C(SCCN2CCCCC2)c2ccccc21,6.3,0.6
Brc1ccc(CNC23CN4CN(CN(C4)C2)C3)cc1,2.5,0.7
O=C(NC1CC(=O)N(c2ccc3c(c2)OCCO3)C1)NN1CCOCC1 (stereo not given),0.7,-2.0
Cc1ccccc1CSc1nnc(C(C)NC(=O)C2CCCCC2)n1-c1ccc(Cl)cc1Cl (stereo not given),16.7,17.9
Cc1sc(N)nc1-c1ccc2c(c1)CCC2,7.8,11.0
O=C(O)[C@H]1C[C@H](C(=O)NC2CC2)CN(Cc2cn[nH]c2-c2ccccc2)C1,1.6,3.6
CC(=O)Nc1sc(-c2ccccc2)c(C)c1C(=O)N1CCCCC1,-5.9,-6.3
CCc1nc2ccc(C(=O)NC3CCN(Cc4ccccc4)CC3)cn2c1N(CC)Cc1ccc2c(c1)OCCO2,5.8,21.4
Ic1ccc(Nc2nc(NCCN3CCOCC3)nc(N3CCCC3)n2)cc1,9.5,7.6
Cc1cc(C2CCCN(CCn3cccn3)C2)n[nH]1 (stereo not given),-2.8&6.6,-3.8&3.5
CC1CCN(CCCNS(=O)(=O)c2ccc(Br)cc2)CC1,-5.9,-6.5
NC(c1csc(Nc2cnccn2)n1)C1CCCCC1 (stereo not given),8.6,8.3
NC1(C(=O)NCCC2CN(Cc3ccco3)CCO2)CCCC1 (stereo not given),1.3,1.4
CCSc1nnc(SCC(=O)Nc2cc(C)on2)s1,1.4,3.9
CC(=NC(C)C1CC2CCC1C2)c1c(O)n(CC(C)C)c(=S)[nH]c1=O (stereo not given),0.7,8.0
Cc1ccnc(NC(=O)CN(C)C(=O)C2(c3ccccc3)CC2)c1,9.3,10.6
Cc1ccc2c(c1)CN(CC(=O)N(Cc1ccncc1)C[C@@H]1CCC(=O)N1)CC(c1ccsc1)O2 (stereo not given in full),1.7,-3.5
FC(F)Oc1ccc(NC(=S)NCCCn2ccnc2)cc1,6.3,3.3
CCc1cc(CN2CCCC2c2nc3ccc(C)cc3[nH]2)on1 (stereo not given),1.9,-1.4
COc1ccc(CN(Cc2ccco2)C(=O)c2cccs2)cc1OS(=O)(=O)c1ccc(NC(C)=O)cc1,-0.2,6.3
CC[C@H]1OC(=O)[C@H](C)[C@@H](O[C@H]2C[C@@](C)(OC)[C@@H](O)[C@H](C)O2)[C@H](C)[C@@H](O[C@@H]2O[C@H](C)C[C@H](N(C)C)[C@H]2O)[C@](C)(O)C[C@@H](C)CN(C)[C@H](C)[C@@H](O)[C@]1(C)O,-12.1&-2.0,-18.6&-4.7
COc1ccc(C(O)c2c3cc(OC)c(OC)cc3cc[n+]2C)cc1OC (stereo not given),-2.1,-1.6
Brc1cccc(-c2nc(NCCCc3ccccc3)c3ccccc3n2)c1,0.2,-6.7
COCCN1CCN(c2cc(Oc3ccccc3OC)ncn2)CC1,23.3,26.8
OCCCN(Cc1ccc(Cl)nc1)CC(F)(F)F,4.4,3.4
CC1(C(=O)NS(=O)(=O)c2cccs2)CCN1C(=O)CCC1CCCC1 (stereo not given),2.7,-0.3
O=C(c1cccs1)N1CCN(Cc2ccc(Br)cc2)CC1,25.0,20.7
CN(C)c1ccc(CN2CCCn3cccc3C2c2cccc(O)c2)cc1 (stereo not given),0.3,14.0
CNC(=O)CN1CCN(c2ncnc3c2nnn3C)CC1,0.1,6.9
COCCNC(=O)C(NC(=O)c1cccc(C)c1)C1CCN(C(=O)CCc2ccccc2)CC1 (stereo not given),-5.9,8.3
O=C(NCc1cccnc1)c1cc(-c2ccc(Cl)cc2)nc2ccccc12,-0.1,-1.9

# Remaining list, next part
SMILES,NPYLR7 agonist,NPYLR7 agonist max-min
COc1c(Cl)cc(Cl)cc1/C=N\NC(=O)CSc1nc2ccccc2s1,-4.5,-11.0
O=C(CSc1nc2[nH]ncc2c(=O)[nH]1)NCc1ccc(F)cc1,-1.4,-2.0
COc1ccc2c(c1)C(C(=O)NCc1cnn3ccccc13)CC(=O)N2 (stereo not given),-4.6,-8.8
O=C(CCc1c[nH]c2ccccc12)N1CCC(n2cc(CO)nn2)CC1,3.6,5.6
CCOC(=O)c1c(NC(=O)c2cc(C)n(C(C)(C)C)n2)c(-c2ccc3c(c2)OCO3)cn1C,16.7,25.1
CC1CCC(NC(=O)c2ccc3c(=O)[nH][nH]c(=O)c3c2)CC1 (stereo not given),8.5,7.4
Cc1cc(-c2ccc(NC(=O)CCC(=O)O)c(C)c2)ccc1NC(=O)CCC(=O)O,7.7,9.1
Fc1ccc(CN2CCN(CC3CC4C=CC3C4)CC2)cc1 (stereo not given),4.0,4.6
CCOc1ccc2nc(N(CCCn3ccnc3)C(=O)c3ccc(Cl)s3)sc2c1,5.1,1.1
c1cc(CN(Cc2ccc3nonc3c2)CC2CCCO2)cs1 (stereo not given),-3.4,-1.5
CNCC1(CO)CCOCC1,0.9,-0.1
O=C(c1ccc2c(c1)CCC2)N(CC1CCCO1)C1CCSC1 (stereo not given),1.2,2.3
O=C1c2ccccc2C(=O)N1CN(C(=O)C(F)(F)F)c1ccc(Cl)cc1,3.0,2.5
CCCNC(=O)C1(C)CCN1C(=O)c1ccc(C(C)(C)C)cc1 (stereo not given),8.7,6.3
CCN1C(=O)c2ccc(Cl)cc2NC12CCN(C(=O)C1CC1)CC2,12.7,9.9
FCCn1cnc(-c2ccccc2)c1-c1ncc[nH]1,31.7,15.5
COC(=O)c1ccccc1CSc1nnc(-c2ccccc2C)n1-c1ccc(OC)cc1,-20.0,-26.7

# This is a subset, so the mix of outcomes need not match the whole.
